# Screens from PubChem.
# VCAM-1 rise: enhancers of VCAM-1 display on endothelial cells, cell-based, plate reader, pooled HUVEC, TNFa stimulus (AID 455). HUVEC TNFa-induced VCAM-1 immunofluorescence, plate reader; numbers were filed only for top-ranked candidate wells. augmentation, % at 5 µM. hit rate 0.2% among 10,000;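 active = a compound raising TNF-alpha-driven VCAM-1 surface staining, with its hit status upheld on visual or statistical review; inactive = the rest, including hits rejected on review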;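 also: 0% = TNFa with vehicle and 100% = strongest image-checked hit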
# Proteasome disasm: inhibitors of ATP-driven 26S proteasome dissociation, primary screen, biochemical, bead-based flow cytometry, GFP-tagged proteasome. anti-FLAG beads, GFP-proteasome disassembly. hit rate 0.2% among 24,000. inhibition of disassembly, % (concentration not given with the values);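 active = above 40%; inconclusive = likely self-fluorescent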;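 also: plate controls were ATP control with full disassembly for no effect and ATP-gamma-S intact proteasomes for full effect; higher percent means more bead fluorescence retained so stronger block of disassembly; stock transfer was 100 nL into about 10 µL; wells with too few beads may also be inconclusive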
# The depositor's hits bear a star; i = inactive; ? = inconclusive; · = no result given. A portion of the library (hit frequency here may not be typical).
mol | VCAM-1 rise | Proteasome disasm
CC(=O)c1c(C)nc2ccc(Br)cc2c1C(=O)O | · | -0.2
COc1ccccc1CN1CC(C(=O)N2CCN(c3ccc(F)cc3)CC2)CC1=O (stereo not given) | i | -0.2
CCOC(=O)c1sc(=N)n(-c2ccc(OC)cc2)c1C | · | -1.1
COc1cccc(C(=O)CN2CCC(NC(=O)NC3CCCCC3)CC2)c1 | i | -0.4
COc1ccc(NC(=O)C2=C(C)C(=O)OC23CCC(C)CC3)c(OC)c1 (stereo not given) | · | -2.9
COc1ccc(Cl)cc1C(=O)Nn1cnc2ccccc2c1=O | · | -0.7
COc1ccc(Nc2nc(C)cc(C)c2C#N)cc1OC | · | 0.5
COc1ccccc1S(=O)(=O)Cc1ccc(C(=O)N2CCN(c3cccc(Cl)c3)CC2)o1 | · | 0.7
O=C1c2ccccc2C(=O)N1C/C=C/CN1C(=O)c2ccccc2C1=O | i | -1.5
O=P(O)(CN1CCCCCC1)CN1CCCCCC1 | i | 1.1
Cc1ccccc1Cn1c(=O)n(Cc2ccco2)c(=O)c2ccccc21 | · | 0.2
COc1cc2[nH]c(=O)n(CCCCCC(=O)N3CCN(c4ccccc4)CC3)c(=O)c2cc1OC | · | -1.5
C=CCn1cc(C(=O)NCc2cccnc2)c(=O)c2cc(S(=O)(=O)N(CC)CC)ccc21 | · | 1.0
c1ccc(OCc2nc(-c3ccccc3)no2)cc1 | i | 0.9
Cc1cc(C(=O)CN2CC(C)OC(C)C2)c(C)n1-c1ccccc1 (stereo not given) | · | -0.3
COc1ccc(-c2cc(C(F)(F)F)nc(N3CCN(C)CC3)n2)cc1 | · | 3.9
CCCCOc1ccc(C2C3CN(C(=O)OCC)CC=C3C(C#N)=C(N)C2(C#N)C#N)cc1OC (stereo not given) | i | 2.4
O=C(Oc1cccnc1)c1ccc(Cl)c(Cl)c1 | · | 3.9
COc1ccc(NC(=O)c2oc3ccccc3c2NC(=O)c2ccco2)c(OC)c1 | · | -0.8
CCOc1ccc(C2N(c3ccc(OC)cc3)C(=O)C3CCCN32)cc1OC (stereo not given) | · | -1.2

# New compounds follow.
mol | VCAM-1 rise | Proteasome disasm
COc1ccc(OC)c(C(=O)CSc2nnc(-c3ccc(OC)c(OC)c3)o2)c1 | i | -1.6
CCN(c1ccccc1)S(=O)(=O)c1ccc2[nH]cc(C(=O)N3CCOCC3)c(=O)c2c1 | · | -2.2
CCOC(=O)CSc1nnc(CNC(=O)c2cc(OCC)c(OCC)c(OCC)c2)n1C | · | -2.0
CN1CCCC(OC(=O)COc2ccc(Br)cc2)C1 (stereo not given) | i | -1.1
O=C(CCC(=O)OCCCC(F)(F)C(F)(F)F)NC1CCCCC1 | i | -1.8
O=C(O)CCS(=O)(=O)Cc1cccc(Cl)c1 | · | -1.8
Cn1c(=O)cc(SCC(=O)N2CCCC2)c2ccccc21 | · | -0.3
CC1N=C2c3ccccc3N=C(SCc3cc(=O)n4cc(Cl)ccc4n3)N2C1=O (stereo not given) | i | 1.8
CCCOc1ccc(C2C(=O)N(C3CCCCC3)CC(=O)N2CCCOCC)cc1OC (stereo not given) | · | 0.1
O=C(Nc1cccc(Cl)c1)N1CCN(c2ncccn2)CC1 | i | -0.9
CC(C)Oc1ccc(C2CNC(=O)C2)cc1 (stereo not given) | · | 0.0
COc1cccc(C(=O)CSc2nnc(-c3cc(OC)c(OC)c(OC)c3)o2)c1 | · | -0.5
COc1cccc(CNC(=O)C2CCN(S(=O)(=O)c3cnc[nH]3)CC2)c1 | · | -3.1
Nc1nc(-c2ccccc2)cc(C(F)(F)F)n1 | i | -1.9
CCOC(=O)c1ccc(NC(=O)CSc2nnc(COc3ccccc3)n2C)cc1 | i | 0.3
COc1ccc(C2C(C(=O)N3CCCC3)c3cc(OC)c(OC)cc3C(=O)N2C)cc1 (stereo not given) | i | 0.5
O=C(NCC(=O)N(c1cnc2ccccc2c1)C(C(=O)NC1CCCC1)c1ccncc1)c1ccco1 (stereo not given) | i | -2.1
CCCCOc1ccccc1NC(=O)c1ccco1 | i | ?
COc1ccc(CCNC(=O)c2nonc2N)cc1OC | · | 1.9
O=C(c1cccnc1)N1CCN(C(=O)c2ccccc2F)CC1 | i | 1.9

# (more compounds)
mol | VCAM-1 rise | Proteasome disasm
COc1ccc(-n2c(Cc3cccn3C)nnc2SCC(=O)N2CCCc3ccccc32)cc1 | · | 0.7
CC(=O)c1c(O)cc(C)n(Nc2nc(C)cc(C)n2)c1=O | i | -2.1
CN(CC(=O)NCc1ccc(F)cc1)S(=O)(=O)c1cccc2nsnc12 | · | 0.9
CCOC(=O)c1[nH]c(C)c(C(=O)N2CCN(C(=O)c3ccco3)CC2)c1C | i | 2.1
c1ccc2c(c1)sc1nnnn12 | i | -1.2
CCOC(=O)Nc1ccc2c(c1)Sc1ccccc1N2C(=O)CCN1CCOCC1 | · | 1.7
Nc1cc(-c2cccc(F)c2)nn1S(=O)(=O)c1cccc2nsnc12 | · | -1.5
COc1ccc2nc(SCC(=O)N3CCNC3=O)[nH]c2c1 | · | 0.5
CCOC(=O)Cn1c(N)c(C(=O)OC)sc1=S | · | -1.7
Cn1c(=O)[nH]c(=O)c2c1nc(CN1CCOCC1)n2CCCO | · | -0.6
S=c1[nH]ncn1-c1ccccn1 | i | -0.2
CCOC(=O)CSc1nc2cc(C(=O)NCc3ccco3)ccc2c(=O)n1C1CCCCC1 | i | -0.9
Cc1ccc(C)n1CCN1CCN(CC(=O)Nc2cc(C(F)(F)F)ccc2Cl)CC1 | · | 5.5
Clc1ccc(OCc2nc(-c3ccncc3)no2)c(Br)c1 | · | 1.2
CC1(C)CC(=O)C2=C(C1)OC(N)=C(C#N)C2C1CC=CCC1 (stereo not given) | i | 2.4
O=C(Cn1c(=O)sc2ccccc21)NCCOc1ccccc1F | i | -1.2
CCOC(=O)N1CCN(c2nc(-c3ccc(OC)cc3)no2)CC1 | · | 2.4
COc1ccc(C)cc1NC(=O)CSc1nnc(-c2ccc(C)cc2)o1 | · | 1.0
O=C1c2ccccc2C(O)N1c1cccnc1 (stereo not given) | · | 3.0
CC1CCCC(C)N1CCNC(=O)CCn1nc(-c2ccccc2)ccc1=O (stereo not given) | · | -2.0

# Going on with the list.
mol | VCAM-1 rise | Proteasome disasm
Cc1ccc(Cn2c(CN3CC(C)OC(C)C3)nc3c2c(=O)[nH]c(=O)n3C)cc1 (stereo not given) | · | -1.5
Cc1ccc(N2CC(C(=O)N3CCN(C(=O)c4ccco4)CC3)CC2=O)cc1 (stereo not given) | i | 1.0
CC1CCCCC1NC(=O)CN1CCN(Cc2ccccc2Cl)C1=O (stereo not given) | i | -2.4
CCOc1ccccc1NC(=O)CN(c1ccc(C)cc1)S(=O)(=O)c1c(C)noc1C | i | -1.8
CC1CCN(CCNC(=O)c2ccc3c(=O)n(CCc4ccccc4)c(=O)[nH]c3c2)CC1 | · | 8.8
COc1ccc(C)cc1Nc1cc(C)nc2ncnn12 | · | -2.0
CC(NC(=O)Cc1cccs1)C(c1cccs1)N1CCN(c2ccccc2)CC1 (stereo not given) | · | 0.8
Cc1c(Cl)cccc1NC(=O)CCN1CCCCCC1 | i | 2.1
O=C(OCc1nnc(-c2ccccc2)o1)C1=COCCO1 | i | -0.1
Cc1ccc2nc(NC(=O)C3CCN(S(=O)(=O)c4ccc5c(c4)oc(=O)n5C)CC3)sc2c1 | · | 1.0
Cc1ccc(S(=O)(=O)NCc2ccc(C(=O)N(C)CCC#N)cc2)cc1 | · | -2.0
COc1ccccc1-n1c(C)nnc1SCC(=O)Nc1cccc(C(C)=O)c1 | i | 1.4
CCOC(=O)N1CCN(Cc2nc3c(c(=O)[nH]c(=O)n3C)n2Cc2cc(C)ccc2C)CC1 | i | 1.0
COc1ccc(CC(=O)Nc2cc(Cl)ccc2O)cc1 | i | -3.0
Cc1nnc2ccc(N3CCC4(CC3)OCCO4)nn12 | i | 0.4
COc1ccc(C2C3=C(CCCC3=O)Nc3nc(SCc4ccccc4)nn32)cc1OC (stereo not given) | i | 1.2
CC12CC(NC(=O)N1c1cccc(C(=O)N3CCN(c4ccccn4)CC3)c1)c1ccccc1O2 (stereo not given) | · | 0.8
COc1ccccc1NC(=O)c1nc[nH]c1C(=O)Nc1ccccc1OC | · | 6.8
O=C1OC(N2CCN(c3ccccn3)CC2)c2ccccc21 (stereo not given) | i | -0.3
Cn1c(=O)c2c(nc(CN3CCN(Cc4ccccc4)CC3)n2Cc2cccc(Cl)c2)n(C)c1=O | i | 1.1

# Single records, from the list above:
# COc1ccccc1-n1c(C)nnc1SCC(=O)Nc1cccc(C(C)=O)c1 is listed with VCAM-1 rise = i; Proteasome disasm = 1.4
# O=C(Nc1cccc(Cl)c1)N1CCN(c2ncccn2)CC1 is listed with VCAM-1 rise = i; Proteasome disasm = -0.9
# O=C(Oc1cccnc1)c1ccc(Cl)c(Cl)c1 is listed with VCAM-1 rise = ·; Proteasome disasm = 3.9

# Three entries out of the list above, arranged by the number in Proteasome disasm, smallest number first.
mol | VCAM-1 rise | Proteasome disasm
COc1ccc(CC(=O)Nc2cc(Cl)ccc2O)cc1 | i | -3.0
CC12CC(NC(=O)N1c1cccc(C(=O)N3CCN(c4ccccn4)CC3)c1)c1ccccc1O2 (stereo not given) | · | 0.8
CC1CCN(CCNC(=O)c2ccc3c(=O)n(CCc4ccccc4)c(=O)[nH]c3c2)CC1 | · | 8.8

# Next part
mol | VCAM-1 rise | Proteasome disasm
CCOC(=O)c1ccc(Oc2nc(SC)nc(N(C)C)n2)cc1 | i | -2.5
COc1cccc2cc(NC(=O)C3CCCCC3)c(=O)oc12 | · | -0.4
COc1ccc(OC)c(NC(=O)Cn2cccc2)c1 | · | -0.7
COc1ccc(-n2nc3cc(C)c(N)c(Br)c3n2)cc1 | i | 2.3
COc1ccccc1N=c1oc2cc(O)ccc2cc1C(N)=O | · | -0.8
O=C(Nc1ccc2snnc2c1)N1CCSCC1 | i | 0.5
COc1cccc(-c2nc(CS(=O)(=O)CC(=O)N3CCc4ccccc4C3)c(C)o2)c1 | i | 0.3
Cc1ccc2c(c1)N(CCC(=O)NCC1COc3ccccc3O1)C(=O)CO2 (stereo not given) | · | 0.0
O=C(Cc1c(C(=O)O)[nH]c2ccc(Cl)cc12)Nc1ccc2c(c1)OCCO2 | · | -3.6
Cc1sc2ncn(CC(=O)NCCCC(=O)N3CCN(c4ncccn4)CC3)c(=O)c2c1C | · | -0.5
CC(C)c1cc(C(=O)Nc2ccc3c(c2)OCO3)no1 | · | -0.1
COc1ccc(N2C(=O)C3CCCN3C2c2ccc(C)cc2)cc1Cl (stereo not given) | · | 5.7
CC(=O)c1ccc(N2CCN(C(=O)CCS(=O)(=O)c3ccc(C)cc3)CC2)cc1 | · | -1.5
Cc1nn(Cc2ccc(Cl)cc2Cl)c(C)c1NC(=O)c1nc2n(n1)C(C(F)F)CC(C)N2 (stereo not given) | · | -0.2
CCN1CCCC1CNC(=O)c1cc2c(C)nc3ccccc3c2o1 (stereo not given) | · | -5.6
COC(=O)c1cccc(NC(=O)CSc2nnc(COc3ccccc3)n2C)c1 | i | -0.2
CC(=O)NC(C)c1nc2ccccc2n1Cc1ccccc1F (stereo not given) | · | 0.1
Cc1cc2cc(CN(CCCN3CCOCC3)C(=O)NC3CCCCC3)c(=O)[nH]c2cc1C | i | 3.8
Cc1ccc(N(C(C)C(=O)O)S(=O)(=O)c2c(C)[nH]c(=O)[nH]c2=O)cc1 (stereo not given) | · | 0.0
Cc1cc(=O)n2nc(N3CCC(C(=O)NCCC4=CCCCC4)CC3)sc2n1 | · | 10

# (cont.)
mol | VCAM-1 rise | Proteasome disasm
CCc1ccc(NC(=O)c2cc(C)on2)cc1 | · | 1.7
COc1cccc(OCC(O)CN2CC(C)CC(C)C2)c1 (stereo not given) | · | 0.6
CCN(CC)S(=O)(=O)c1ccc(C2CNC(=O)C2)cc1 (stereo not given) | · | -0.2
COc1ccc(NC(=O)CSc2nnc(-c3ccccc3C)n2C)cc1 | i | -0.7
Cc1ccc(NC(=O)/C(CN(C)C)=N\O)cc1 | · | -0.2
CCOc1ccc(OCC)c(NC(=O)C2CCCN(S(=O)(=O)c3cnc[nH]3)C2)c1 (stereo not given) | · | -0.6
CC(C)(C)c1nnc(NC(=O)C2CCN(c3ncccn3)CC2)s1 | i | -0.6
CC(=O)Nc1cc2c(nc1C)nc(C)n2Cc1ccc(Br)cc1 | i | 0.9
COc1ccc(Cl)cc1Nc1nc(C)cc(=O)[nH]1 | i | -1.7
Cc1ccc2nc3n(c(=O)c2c1)CCC3 | · | -0.9
Cc1cccc(-n2ncc3c(NCCCO)ncnc32)c1 | i | -0.8
COC(=O)Nc1ccc(S(=O)(=O)N2CCN(c3ccc(F)cc3)CC2)cc1 | i | 1.5
CC(C)(Oc1ccc(Cl)cc1)C(=O)NC1CCSC1=O (stereo not given) | i | 0.3
O=c1[nH]c2ccc(S(=O)(=O)N3CCN(Cc4ccccc4)CC3)cc2[nH]c1=O | · | -0.6
O=C(O)c1cc(S(=O)(=O)Nc2ccc3c(c2)OCCO3)c(Cl)cc1Cl | · | -1.6
O=C(Cn1ccc2ccccc2c1=O)NCCC(=O)NC1CCN(Cc2ccccc2)CC1 | i | 0.8
N#Cc1ccccc1Cn1c(=O)n(CCC(=O)NCc2ccco2)c(=O)c2ccccc21 | · | -1.1
CCC1CCCN1Cn1cnc2c([nH]c3ccc(OC)cc32)c1=O (stereo not given) | i | -1.1
Cc1c(NC(=O)c2cc(-c3ccco3)on2)c(=O)n(-c2ccccc2)n1C | · | -0.1
Cc1nnc(NCc2n[nH]c(=O)c3ccccc23)c2ccccc12 | i | -2.9
CCN(Cc1nc2ccccc2c(=O)[nH]1)Cc1nc2cc(OC)c(OC)cc2c(=O)[nH]1 | i | -0.1
